High-throughput results from PubChem BioAssay.
GIRK2 activ: opens human GIRK2 potassium channels. HEK293-GIRK2 thallium flux, Thallos fluorescence. 63,000 compounds, 0.05% hits. calls only for hits at 25 µM. AID 1259325;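 active means among the strongest 0.2% of first-round signals and kept after retests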;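 further: first round at about 10 µM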
Target sequence (P48051 whole entry, looked up): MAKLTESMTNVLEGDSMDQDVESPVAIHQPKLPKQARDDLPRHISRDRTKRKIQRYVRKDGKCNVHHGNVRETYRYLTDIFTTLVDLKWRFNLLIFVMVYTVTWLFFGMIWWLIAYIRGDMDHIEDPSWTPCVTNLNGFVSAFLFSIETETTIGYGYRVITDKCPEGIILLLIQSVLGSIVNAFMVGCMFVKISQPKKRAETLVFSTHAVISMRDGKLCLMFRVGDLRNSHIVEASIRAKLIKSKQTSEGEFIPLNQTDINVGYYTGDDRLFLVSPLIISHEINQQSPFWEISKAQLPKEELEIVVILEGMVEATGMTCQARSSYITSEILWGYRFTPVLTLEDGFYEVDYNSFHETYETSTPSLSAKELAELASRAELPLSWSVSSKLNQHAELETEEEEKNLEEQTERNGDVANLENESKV
Calls only; i = inactive. An excerpt; count on the stated rates, not on these rows.

SMILES | GIRK2 activ
CCCCn1c(=O)c2c(nc3n2CCCCN3c2ccc(CC)cc2)n(C)c1=O | i
O=C(Nc1ccc(F)c(C(F)(F)F)c1)c1coc(NC(=O)c2cnccn2)n1 | i
O=C(CN1CCC(c2nc(-c3cccs3)no2)CC1)Nc1ccccc1C(F)(F)F | i
COc1ccc(N2CCN(S(=O)(=O)CCCNC(=O)c3ccccc3F)CC2)cc1 | i
CCOC(=O)N1CCN(C(=O)CN2CC(c3nc(-c4cccnc4)no3)C2)CC1 | i
Cc1ccc(-c2nc3c(c(=O)n2CC(=O)Nc2c(C)cccc2C)CCN(Cc2ccccc2)C3)cc1 | i
O=C(c1ccc(Cn2ccnc2)cc1)N1CCC(Oc2ccccn2)CC1 | i
NC(=O)CSc1cnn(CC(=O)N2CCN(c3ccc(F)cc3)CC2)c(=O)c1Cl | i
COc1ccc(-c2coc3c4c(ccc3c2=O)OCN(Cc2ccc(C)cc2)C4)cc1 | i
CCOc1ccccc1NC(=O)/C=C/c1ccc(CC)o1 | i
O=S(=O)(Cc1ccccc1)Nc1cnc(Oc2ccccc2)nc1 | i
CCCS(=O)(=O)N1CCCc2ccc(NC(=O)NCc3ccc(OC)c(OC)c3)cc21 | i
c1cncc(-c2noc(C3CN(CC4CCCCC4)C3)n2)c1 | i
COc1ccc(C)cc1S(=O)(=O)Nc1ccc2c(c1)CCCN2S(=O)(=O)c1ccc(C)cc1 | i
CN1C(=O)C(C)(C)COc2cc(NC(=O)Nc3ccc4c(c3)OCO4)ccc21 | i
O=C(NCCCc1ccccc1)N1CCOC(c2ccc(F)cc2)C1 (centres undefined) | i
COc1cccc(N2C(=O)/C(=C/c3ccc(O)c(O)c3)SC2=S)c1 | i
NC(=S)N/N=C1/CCCCC1c1cc(C(=O)O)ccn1 (centres undefined) | i
CCOc1ccccc1NC(=O)CSc1nnc(C)c2cnn(-c3ccccc3)c12 | i
O=C(Nc1ccccc1)N1CCN(c2nc3ccc(Br)cc3s2)CC1 | i
Cc1cc(C)n(CC(=O)Nc2ccccc2Cl)c(=O)c1-c1nc(-c2ccc(F)cc2)no1 | i
O=C(Cn1cccc(S(=O)(=O)N2CCCC2)c1=O)Nc1cccc(Cl)c1 | i
Cc1noc(C)c1CN1CCN(C(=O)C2CCN(S(C)(=O)=O)CC2)CC1 | i
COC(=O)c1ccc(NC(=O)C(=O)NCC(O)(c2ccccc2)C2CC2)cc1 (centres undefined) | i

Retrieved by compound from the list above (two):
SMILES | GIRK2 activ
COC(=O)c1ccc(NC(=O)C(=O)NCC(O)(c2ccccc2)C2CC2)cc1 (centres undefined) | i
COc1cccc(N2C(=O)/C(=C/c3ccc(O)c(O)c3)SC2=S)c1 | i

More compounds follow.
SMILES | GIRK2 activ
CN1C[C@@H]2Cn3c(c(C4=C(c5cn(C)c6ccccc56)C(=O)NC4=O)c4ccccc43)C[C@H]2C1 | i
O=S(=O)(c1ccc(C2CCCCC2)cc1)N1CCC(Cc2ccccc2)CC1 | i
COc1ccc(OC)c(S(=O)(=O)NCC(c2ccc(F)cc2)N2CCN(C)CC2)c1 (centres undefined) | i
CCN(CC)CCN1C(=O)c2ccc(C(=O)O)cc2C1=O | i
CC(C)OCCCNC(=O)C1CCN(c2nc3ccsc3c(=O)n2Cc2ccc(F)cc2)CC1 | i
CCC(Sc1nc2ncccc2c(=O)n1Cc1ccc(F)cc1)C(=O)Nc1cccc(OC)c1 (centres undefined) | i
COc1ccc(NC(=O)CSc2nccn3nc(-c4ccc(Cl)cc4)cc23)c(OC)c1 | i
Cc1nc(NC(=O)c2csc(-n3cccc3)n2)sc1C(=O)N(C)C | i
Cc1cc(C)n(-c2nc(CCNC(=O)C3(c4ccc(Cl)cc4)CCCC3)cs2)n1 | i
CC(O)(CNC(=O)C(=O)Nc1ccc2c(c1)OCCO2)c1ccc2c(c1)OCO2 (centres undefined) | i
CNC(=O)CSc1cnn(CC(=O)Nc2ccc(C(F)(F)F)cc2)c(=O)c1Cl | i
CCOC(=O)c1sc2ccccc2c1S(=O)(=O)N1CCC(C)CC1 | i
Cc1nnc(NC(=O)c2ccc(OCc3nc(C4CC4)cs3)cc2)s1 | i
CSc1cccc(NC(=O)Cn2c(=O)cc(-c3nc(C(C)C)no3)c3ccccc32)c1 | i
CCCc1cc(-n2nc(C)cc2C)n2nc3nc(C)cc(C)c3c2n1 | i
O=C(NCCCN1CCCC1=O)C(=O)Nc1ccccc1[N+](=O)[O-] | i
CCN(CC)CCSc1nnc(N2CCN(c3ccc(F)cc3)CC2)s1 | i
Cc1ccc(NC(=O)NCCCn2ncccc2=O)cc1C | i
COc1ccccc1N1CCN(C(=O)c2ccc(OCc3nc(C4CC4)cs3)cc2)CC1 | i
O=C(NCC1CCN(Cc2ccsc2)CC1)C1COc2ccccc2O1 (centres undefined) | i
COc1cccc(NC(=O)CC2=C/C(=C\c3ccc(SC)cc3)c3ccc(F)cc32)c1 | i
O=C(COc1ccc2c(c1)C(=O)CC2)NCc1ccccc1 | i
CCOC(=O)C1CCCN(C(=O)c2cc(=O)c(OCc3ccccc3)co2)C1 (centres undefined) | i
O=C(COc1ccc(F)cc1)NCC1CCN(c2ccccn2)CC1 | i
COCCN(Cc1ccoc1)C(=O)c1cc2cccc(OC)c2o1 | i
CCS(=O)(=O)Nc1ccc(Oc2ccc(C)nn2)cc1 | i
O=C(CCc1nc2sc3c(c2c(=O)[nH]1)CCCCC3)NC1CCCCCC1 | i
COc1ccccc1S(=O)(=O)N1CCN(CC(C)O)CC1 (centres undefined) | i
COc1ccccc1N1CCN(c2ccnc(SCC(=O)NCc3ccc(F)cc3)n2)CC1 | i
O=C(NCc1cccs1)c1ccc(Cn2ccnc2)cc1 | i
O=[N+]([O-])c1cccc(-c2nnc3c4cnn(-c5ccc(F)cc5)c4ncn23)c1 | i
O=C(NCC1CCN(C(=O)c2ccoc2)CC1)c1ccc(F)c(F)c1 | i
CC(C)Oc1ccc(-c2noc(-c3nn(-c4cccc(Br)c4)ccc3=O)n2)cc1 | i
COc1ccc(CCNC(=O)CSc2ncccc2-c2nc3ccccc3[nH]2)cc1OC | i
COc1cc(C)c(C)cc1S(=O)(=O)NCC1CCN(C)CC1 | i
O=C(NCC1CCN(C(=O)Oc2ccccc2)CC1)c1nc2ccccc2s1 | i
CN(CC#CCNC(=O)COc1ccc(Cl)cc1)Cc1ccccc1 | i
O=C(C1CC=CCC1)N1CCC(CSCc2ccco2)CC1 (centres undefined) | i
COc1ccc(Cl)cc1NC(=O)NCC1CCN(C(=O)c2ccoc2)CC1 | i
CC(C)(C)NC(=O)N1CCN(Cc2ccsc2)CC1 | i
Cn1c(=O)[nH]c(=O)c2c1nc(NCCC(=O)O)n2CC(O)COc1ccccc1 (centres undefined) | i
O=C(c1ccc(F)cc1Cl)N(Cc1ccsc1)Cc1ccco1 | i
COc1ccc(C)cc1NC(=O)NCCOc1cc(N2CCOCC2)ncn1 | i
COc1cccc(NC(=O)Cn2nc3c4cc(-c5ccc(Cl)cc5)nn4ccn3c2=O)c1 | i
COC(=O)c1c(-c2ccc(Cl)cc2)csc1N | i
COc1ccc(Cl)cc1N1C=C(C#N)S(=O)(=O)c2ccc(F)cc21 | i
Cc1c(CNC(=O)c2ccc(-n3cccn3)nn2)sc2nc(-c3ccc(F)cc3)cn12 | i
CC#CCC(C)[C@H](O)/C=C/[C@@H]1[C@H]2C/C(=C\CCCC(=O)O)C[C@H]2C[C@H]1O (some centres undefined) | i
Cn1ccnc1SCC1CCN(S(=O)(=O)c2c(F)cccc2F)CC1 | i
O=C(Cn1cc(-c2nc(-c3ccc(Cl)cc3)no2)ccc1=O)Nc1cccc(C(F)(F)F)c1 | i
CCCCOc1ccccc1N1C(=O)CC(N2CCN(C(=O)OCC)CC2)C1=O (centres undefined) | i
Cn1c(CNc2ncc3c(=O)n(-c4ccccc4)c(=O)[nH]c3n2)nc2ccccc21 | i
O=C(/C=C/c1ccc2c(c1)OCO2)N1CCC(c2nnc(-c3ccco3)o2)CC1 | i
Cc1cc(NC(=O)C2CCN(C(=O)c3nc4ccccc4s3)CC2)no1 | i
C=CCOCC(O)Cn1c(NC2CCCCC2)nc2c1c(=O)n(C)c(=O)n2C (centres undefined) | i
COc1ccc(NC(=O)CSc2ncnc3nc(N4CCc5ccccc5C4)sc23)c(OC)c1 | i
Cc1cc(C(=O)Nc2nc(C(=O)NCc3ccco3)co2)no1 | i
COc1ccc(NC(=O)NCC#CCN2CCOCC2)c(OC)c1 | i
COc1ccc(C(=O)NCc2sc3nc(-c4ccc(F)cc4)cn3c2C)nn1 | i
O=C(COc1ccc(F)cc1)NCC(O)c1ccoc1 (centres undefined) | i
(further entries)
SMILES | GIRK2 activ
COCCN1CCC(NC(=O)Cc2ccc(Cl)cc2)CC1 | i
CCS(=O)(=O)N1CCCc2cc(NS(=O)(=O)c3ccc(C)cc3)ccc21 | i
O=c1ccc(-c2ccc(F)cc2)nn1Cc1nc(-c2ccc(C(F)(F)F)cc2)no1 | i
CCOc1ccccc1NC(=O)N(CCOC)Cc1ccsc1 | i
O=C(CSC1=NC2(CCCCCC2)Nc2ccccc21)Nc1ccc2c(c1)OCCO2 | i
CSc1cccc(NS(=O)(=O)c2cn(C)nc2C)c1 | i
O=C(c1ccc(NS(=O)(=O)c2cccc(C(F)(F)F)c2)cc1)N1CCCC1 | i
COc1cc(OC)c(CCC(=O)O)c(OC)c1 | i
Cc1ccccc1NC(=O)NCC1CCN(S(=O)(=O)c2cccnc2)CC1 | i
Cc1nnc2ccc(S(=O)(=O)N(Cc3ccccc3F)c3ccc(Cl)cc3)cn12 | i
O=C(Cc1c[nH]c2ccccc12)NCC#CCOc1ccc2c(c1)OCO2 | i
COc1cccc(Oc2nccn3c(=O)n(CC(=O)Nc4cc(C)c(Cl)cc4OC)nc23)c1 | i
O=S(=O)(c1ccccc1C(F)(F)F)N1CCN(c2ccc(-n3cccc3)nn2)CC1 | i
CC(C)(Oc1ccc(Cl)cc1)C(=O)N1C2CCCC1COC2 | i
Cc1cn2c3c(=O)[nH]c(=O)n(C)c3nc2n1CCCN1CCN(c2ccccc2)CC1 | i
Cc1ccccc1OCC(=O)Nc1nc(-c2ccncc2)cs1 | i
CS(=O)(=O)c1ccc2nc(N3CCN(C(=O)c4c(F)cccc4F)CC3)sc2c1 | i
O=C(/C=C/c1ccc2c(c1)OCO2)N1CCN(C2=NN=C(c3ccccc3)CS2)CC1 | i
CCc1ccc(-n2cc(C(=O)OCc3ccccn3)c3ccccc3c2=O)cc1 | i
O=C(Nc1ccc(S(=O)(=O)Nc2nccs2)cc1)c1coc(NC(=O)c2cnccn2)n1 | i
CCCCCCCCCCCCCC(=O)OCC | i
O=C(Nc1ccncc1)c1ccc(NS(=O)(=O)c2cccc(Cl)c2)cc1 | i
COc1ccc(-c2csc3c(=O)n(CC(=O)NCc4ccco4)cnc23)cc1 | i
O=C(NCCCn1ncccc1=O)c1cc2n(n1)CCCO2 | i
CCCc1nnsc1C(=O)Nc1cccc(-c2csc(-c3ccccc3)n2)c1 | i
CCCOc1ccc(CNC(=O)C2CCN(c3cc(Oc4ccccc4)ncn3)CC2)cc1 | i
Cc1cc([N+](=O)[O-])ccc1NC(=O)c1ccc(-n2cnnn2)cc1 | i
CC/C=C\C/C=C\C/C=C\C/C=C\CCCCCCC(=O)O | i
C[C@]1(O)CC[C@@H]2C(C(=O)O)=CO[C@@H](O[C@@H]3O[C@H](COC(=O)c4ccc(O)cc4)[C@@H](O)[C@H](O)[C@H]3O)[C@@H]21 | i
COc1ccc2nc(COc3ccc(Cl)c(C)c3)[nH]c2c1 | i
O=C1NC(=O)/C(=C/c2ccc3ncccc3c2)S1 | i
Cc1nc(-n2nc(C3CC3)cc2NC(=O)C(C)Oc2ccccc2)[nH]c(=O)c1C (centres undefined) | i
Cc1ccccc1C(=O)NCC(O)C1CCCCC1 (centres undefined) | i
COC(=O)c1ccc(Cn2nc3ccc(-c4ccccc4)nn3c2=O)o1 | i
COc1ccc(CC(C)(O)CNC(=O)C2(c3ccccc3)CCOCC2)cc1 (centres undefined) | i
COC(=O)c1ccc(N/C=C(\C#N)c2nc(-c3ccc(OC(C)=O)cc3)cs2)cc1 | i

A different layout for some results above.
| SMILES | GIRK2 activ |
| --- | --- |
| CCc1ccc(-n2cc(C(=O)OCc3ccccn3)c3ccccc3c2=O)cc1 | i |
| COc1ccc(CC(C)(O)CNC(=O)C2(c3ccccc3)CCOCC2)cc1 (centres undefined) | i |
| Cc1cc(C(=O)Nc2nc(C(=O)NCc3ccco3)co2)no1 | i |
| Cc1nnc(NC(=O)c2ccc(OCc3nc(C4CC4)cs3)cc2)s1 | i |

Some of the entries above, reformatted:
canonical_smiles,GIRK2 activ
COC(=O)c1ccc(N/C=C(\C#N)c2nc(-c3ccc(OC(C)=O)cc3)cs2)cc1,i
Cc1cc([N+](=O)[O-])ccc1NC(=O)c1ccc(-n2cnnn2)cc1,i

Going on with the list.
SMILES | GIRK2 activ
Cc1nn(-c2ccccc2)c2ncc(C(=O)Nc3cccc([N+](=O)[O-])c3)c(Cl)c12 | i
CCc1ccc(-n2c(-c3ccccc3)cn3c4c(=O)n(CCOC)c(=O)n(C)c4nc23)cc1 | i
COc1cccc(S(=O)(=O)N2C3CCC2COC3)c1 | i
O=C(c1cnn2c1OCCC2)N1CCC(Cc2ccc(C(F)(F)F)cc2)C1 (centres undefined) | i
O=C(NCc1ccc(-c2nccs2)cc1)c1nc2ccccc2s1 | i
NC(=O)c1ccc(NC(=O)c2c[nH]c3c(C(F)(F)F)cccc3c2=O)cc1 | i
CCCn1c(=O)[nH]c2c(C(=O)N3CCN(c4ccc(C)cc4C)CC3)snc2c1=O | i

Reprinted from the listing (2 entries):
SMILES | GIRK2 activ
Cc1nn(-c2ccccc2)c2ncc(C(=O)Nc3cccc([N+](=O)[O-])c3)c(Cl)c12 | i
CCc1ccc(-n2c(-c3ccccc3)cn3c4c(=O)n(CCOC)c(=O)n(C)c4nc23)cc1 | i
